Marburg entry inh: inhibitors of Marburg virus binding or cell entry | Marburg virus pseudotyped entry inhibition, cell reporter; control for the full effect not named in the record; about a third of the inactives were read at about 46 µM | Potency, µM (top dose mostly 37.8 µM), without a hit: top-dose activity change, negative = inhibition, usual class: inhibitors | 1.8% of 300,000 active | AID 540276; active = well fitted inhibition curve with a large enough effect; inconclusive = small, poorly fitted or top-dose-only effect, or effect the other way; inactive = flat fitted curve, though single readings scatter; tested in HEK293 cells; about a fifth of its hits are not listed in these tables; also: % is scaled to controls: 0 for no effect and ±100 for the full control effect; luciferase read-out
Lassa entry inh: blocks Lassa virus binding to or entry into cells; Lassa virus pseudotype entry inhibition, cell reporter; control for the full effect not named in the record; 1.2% of 300,000 active; Potency, µM (top dose mostly 37.9 µM), for the others: at the highest dose activity change, negative = inhibition, usual class: inhibitors; active means well fitted inhibition curve with a large enough effect; inconclusive means small, poorly fitted or top-dose-only effect, or effect the other way; inactive means flat fitted curve, though single readings scatter; tested in HEK293 cells; also: % is scaled to controls: 0 for no effect and ±100 for the full control effect; nearly all actives have a fitted effect of over 50% in size; luciferase read-out
Cruzain inh noDet: inhibitors of Trypanosoma cruzi cruzain without detergent; P25779; purified cruzain, Z-FR-AMC fluorescence, no detergent; Potency, µM, for inactives: max response, negative = inhibition, usual class: inhibitors; 2.3% of 200,000 active; AID 1476;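 also: plate controls were enzyme without inhibitor for no effect and buffer without enzyme for full effect; nearly all actives have a fitted effect of over 40% in size; top concentration of the series not given in the record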
Target sequence (P25779 123-467 limits assumed): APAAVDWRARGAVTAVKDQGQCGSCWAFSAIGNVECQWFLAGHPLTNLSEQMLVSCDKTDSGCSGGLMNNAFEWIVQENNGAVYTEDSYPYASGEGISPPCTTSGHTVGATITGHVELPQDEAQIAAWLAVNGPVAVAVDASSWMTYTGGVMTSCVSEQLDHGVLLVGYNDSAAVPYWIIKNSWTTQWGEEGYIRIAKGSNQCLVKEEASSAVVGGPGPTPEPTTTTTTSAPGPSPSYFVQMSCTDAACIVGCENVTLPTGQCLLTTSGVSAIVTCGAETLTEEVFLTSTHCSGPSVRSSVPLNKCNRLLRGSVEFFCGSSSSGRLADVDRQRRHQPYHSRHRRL
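Purified cruzain at 1.5 nM, pre-incubated 15 min with compound at room temperature in 100 mM sodium acetate pH 5.5, 5 mM DTT, 0.00005% Triton X-100. Reaction started with 2 uM Z-FR-AMC; AMC fluorescence increase over 60 s gives rate.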
RE007 growth inh: less growth of the S. pombe RE007 Vpr strain; S. pombe RE007 Vpr strain, BacTiter-Glo ATP luminescence, 24 h; control for the full effect not named in the record; Potency, µM (titrated, usually from 92.2 µM), inactives show at the highest dose activity change, negative = less growth; 0.21% of 360,000 active; active = well fitted falling curve with a large enough effect; inconclusive = small, poorly fitted or top-dose-only effect; inactive = no such curve, though single readings can be large or run the other way;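 also: % is scaled to controls: 0 for no effect and ±100 for the full control effect; nearly all actives have a fitted effect of over 50% in size; the assay follows cell death caused by Vpr and the record does not say whether a fall means rescue or toxicity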
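Fission yeast strain RE007, carrying one chromosomally integrated HIV-1 vpr copy, was seeded at OD 0.01 in PMG+AL medium with 23 nL pinned compound. After 24 h at 30 °C and 99% humidity, viability was read by BacTiter-Glo luminescence.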
Cruzain Triton: cruzain (T. cruzi) inhibition with detergent; P25779; purified cruzain, Z-FR-AMC fluorescence, 0.01% Triton; Potency, µM, for inactives: max response, negative = inhibition, actives largely listed as inhibitors; 0.43% of 200,000 active; AID 1478;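 also: plate controls were neutral wells for no effect and buffer without enzyme for full effect; nearly all actives have a fitted effect of over 40% in size; top concentration of the series not given in the record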
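Sodium acetate buffer (100 mM, pH 5.5) containing 5 mM DTT and 0.01% Triton X-100 hosted 1.5 nM cruzain and test compound for 15 min at room temperature. Cleavage of 2 uM Z-FR-AMC was then tracked by fluorescence.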
2A StopGo: lowers the luciferase signal of an FMDV 2A StopGo reporter; human cells with a luciferase reporter of 2A StopGo recoding; control for the full effect not named in the record; Potency, µM (doses to about 57.9 µM), for the others: top-dose signal change, negative = less light; 1.2% of 410,000 active; active = well fitted falling curve with a large enough effect; inconclusive = small, poorly fitted or top-dose-only effect; inactive = no such curve, though single readings can be large or run the other way; tested in HEK293T cells; also: % is scaled to controls: 0 for no effect and ±100 for the full control effect; nearly all actives have a fitted effect of over 45% in size; luciferase light after 4 h
NS1 inh: influenza NS1 inhibition; S. cerevisiae slowed by influenza A NS1, growth recovery by OD600; Potency, µM (top dose mostly 46.1 µM), without a hit: at the top dose activity, positive = more growth; 0.4% of 270,000 active; AID 2326; active means well fitted rising curve with a large enough effect; inconclusive means small, poorly fitted or top-dose-only effect; inactive means no such curve, though single readings can be large or run the other way; also: nearly all actives have a fitted effect of over 50% in size
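Growth recovery, yeast-based: influenza A NS1 expressed in S. cerevisiae causes slow growth, and suppressors are detected by OD600. The parent strain without NS1 is used as positive control.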
SARS PLpro yeast: inhibitors of SARS-CoV papain-like protease in yeast. S. cerevisiae expressing SARS-CoV PLpro, growth rescue; control for the full effect not named in the record. Potency, µM (doses to about 32.9 µM), inactives show at the top dose activity, positive = growth rescue. 0.19% of 330,000 active; active means well fitted rising curve with a large enough effect; inconclusive means small, poorly fitted or top-dose-only effect; inactive means no such curve, though single readings can be large or run the other way; also: 0% is about no effect; nearly all actives have a fitted effect of over 55% in size; growth read by luminescence after 48 h
Starred values were filed as active, the others as inactive; [ ] = remark or other dose. Unless noted, calls follow the shape of the dose curve; as a rule, active = well fitted curve in the direction sought with a large enough effect; inconclusive = small, poorly fitted or top-dose-only effect, or another doubt; inactive = no such curve, though single readings can be large; an effect the other way counts as inactive or inconclusive. Potency is read from the fitted curve at half-maximal effect.

For O=C(Nc1ccc2nc(-c3ccccn3)[nH]c2c1)C1CCCCC1 the results were Marburg entry inh 3.7%, Lassa entry inh inconclusive, Cruzain inh noDet 3.2%, RE007 growth inh 3.0%, Cruzain Triton -12.1%, 2A StopGo 14.7%, NS1 inh -8.3% and SARS PLpro yeast -8.6%.
`COc1ccc(C(=O)NNC(=O)c2cc3cc([N+](=O)[O-])ccc3oc2=O)cc1OC` gave Marburg entry inh 11.2%, Lassa entry inh 0.8%, Cruzain inh noDet 1.1%, RE007 growth inh -1.8%, Cruzain Triton -1.1%, 2A StopGo -10.7%, NS1 inh -3.8% and SARS PLpro yeast 1.8%.
Screening Cc1ccc(Oc2ccc(NC(=O)Cn3ccsc3=N)cc2)cc1 returned Marburg entry inh inconclusive, Lassa entry inh -0.2%, Cruzain inh noDet inconclusive, RE007 growth inh 26.5%, Cruzain Triton 0.6%, 2A StopGo -23.9%, NS1 inh -2.2% and SARS PLpro yeast -6.5%.
`COc1ccc(CNC(=O)C2CCCN(S(=O)(=O)c3ccc4c(ccn4C)c3)C2)c(OC)c1` (stereo unspecified) gave Lassa entry inh 1.6%[46.1 µM], Cruzain inh noDet -10.0%, Cruzain Triton -3.0% and 2A StopGo -11.1%.
`C=CCN1C(=NC(=O)CC)SC2CS(=O)(=O)CC21` (stereo unspecified) gave Marburg entry inh -2.1%, Lassa entry inh -3.5%, Cruzain inh noDet 9.9%, RE007 growth inh -7.3%, Cruzain Triton 9.4%, 2A StopGo -23.1%, NS1 inh 10.0% and SARS PLpro yeast 7.8%.
Screening Nc1nonc1-c1nc2ccccc2n1Cc1ccc(F)cc1 returned Marburg entry inh inconclusive, Lassa entry inh -9.3%, Cruzain inh noDet -8.4%, RE007 growth inh 30.8%, Cruzain Triton -1.4%, 2A StopGo -18.2%, NS1 inh -2.4% and SARS PLpro yeast 0.3%.
For Fc1cnc(Cl)nc1N1CCN(c2ccccc2)CC1 the results were Marburg entry inh -6.4%[46.1 µM], Lassa entry inh -25.2%, RE007 growth inh -16.3%, 2A StopGo -9.9%, NS1 inh -6.1% and SARS PLpro yeast 0.9%.
For O=C(CSc1ccccn1)Nc1cccc(S(=O)(=O)N2CCCC2)c1 the results were Marburg entry inh -16.2%, Lassa entry inh 0.7%, RE007 growth inh 6.5%, 2A StopGo 1.5% and SARS PLpro yeast 1.1%.
`CC(C)c1nc(NCC2CCCO2)c(C#N)c2c1COC(C)(C)C2` (stereo unspecified) gave Marburg entry inh -28.1%, Lassa entry inh -9.5%, Cruzain inh noDet 24.0%, RE007 growth inh 14.2%, Cruzain Triton -0.8%, 2A StopGo inconclusive, NS1 inh -14.8% and SARS PLpro yeast -6.3%.
For Cc1ccc(Nc2c(F)c(F)c(F)c(F)c2C(=O)O)c(C)c1 the results were Marburg entry inh -3.9%[46.1 µM], Lassa entry inh 0.8%, RE007 growth inh -6.4%, 2A StopGo inconclusive and SARS PLpro yeast -3.1%.
Cc1ccccc1OCCNC(=O)/C=C/c1ccccc1 was read as Marburg entry inh 21.5%, Lassa entry inh 7.0%, Cruzain inh noDet -0.3%, RE007 growth inh -8.7%, Cruzain Triton -6.8%, 2A StopGo 29.9%, NS1 inh -39.3% and SARS PLpro yeast 17.0%.
For CCOc1ccc(-c2cc(C(F)(F)F)c(C#N)c(SCC(=O)Nc3ccccc3)n2)cc1 the results were Marburg entry inh -12.2%[46.1 µM], Lassa entry inh -4.6%[46.1 µM], Cruzain inh noDet -9.2%, Cruzain Triton -1.0% and 2A StopGo -13.1%.
`COc1ccccc1C(=O)NCC(=O)NNC(=O)C1COc2ccccc2O1` (stereo unspecified) gave Marburg entry inh -8.8%, Lassa entry inh inconclusive, RE007 growth inh -12.6%, 2A StopGo -22.0% and SARS PLpro yeast 1.6%.
Screening Cc1ccc(NC(=O)C2CC(c3ccc(F)cc3)=NO2)cc1 (stereo unspecified) returned Marburg entry inh -1.6%, Lassa entry inh -2.6%, Cruzain inh noDet -0.8%, RE007 growth inh 12.3%, Cruzain Triton 0.0%, 2A StopGo -3.3%, NS1 inh -10.0% and SARS PLpro yeast 28.2%.
Cc1nc(C)c(C(=O)C2=C(O)C(=O)N(CCN3CCOCC3)C2c2cccs2)s1 (stereo unspecified) was read as Marburg entry inh inconclusive, Lassa entry inh -12.1%, Cruzain inh noDet -7.6%, RE007 growth inh 7.3%, Cruzain Triton -4.2%, 2A StopGo -13.0%, NS1 inh 4.6% and SARS PLpro yeast -12.3%.
For COc1ccc(S(=O)(=O)N2CCOCC2)cc1NC(=O)COC(=O)C1COc2ccccc2O1 (stereo unspecified) the results were Marburg entry inh 10.2%, Lassa entry inh 7.3%, Cruzain inh noDet inconclusive, RE007 growth inh inconclusive, Cruzain Triton -2.4%, 2A StopGo -12.0%, NS1 inh -18.0% and SARS PLpro yeast 20.8%.
For O=C(Nc1ccc(Cl)cc1C(F)(F)F)c1ccccc1 the results were Marburg entry inh 3.9%, Lassa entry inh inconclusive, Cruzain inh noDet -2.6%, RE007 growth inh 8.7%, Cruzain Triton 0.0%, 2A StopGo 19.3%, NS1 inh 4.4% and SARS PLpro yeast inconclusive.
Screening CC(C)Cc1ccc(C(C)C(=N)N)cc1 (stereo unspecified) returned Marburg entry inh inconclusive, Lassa entry inh 7.0%, RE007 growth inh -0.1%, 2A StopGo -15.2%, NS1 inh -1.3% and SARS PLpro yeast -1.0%.
For COc1cc2c(C(=O)N3CCN(C)CC3)c(C)n(-c3ccccc3)c2cc1Br the results were Marburg entry inh inconclusive, Lassa entry inh 13.2%, Cruzain inh noDet 0.2%, RE007 growth inh -1.7%[3.69 µM], Cruzain Triton -1.5%, 2A StopGo -7.8%, NS1 inh -1.1% and SARS PLpro yeast 1.1%.
For Cc1ccc(C)c(NC(=O)CCNC(=O)N2C[C@H]3C[C@@H](C2)c2cccc(=O)n2C3)c1 the results were RE007 growth inh 1.8%, 2A StopGo -20.9%, NS1 inh -2.2% and SARS PLpro yeast -4.7%.
Screening CC(=O)c1c(C(C)=O)c(C)n(-c2nc(-c3cccs3)c(C)s2)c1C returned Marburg entry inh -16.0%, Lassa entry inh -10.9%, Cruzain inh noDet -7.9%, RE007 growth inh 12.2%, Cruzain Triton 3.3%, 2A StopGo -22.7%, NS1 inh -17.5% and SARS PLpro yeast 0.0%.
Screening CCc1nn(-c2ccccc2)c(N)c1-c1ccc(OC)c(OC)c1 returned Marburg entry inh -13.7%, Lassa entry inh 11.6%, Cruzain inh noDet inconclusive, RE007 growth inh 3.9%, Cruzain Triton 5.5%, 2A StopGo -3.0%, NS1 inh -10.3% and SARS PLpro yeast 5.2%.
Screening CCOc1ccc(C(=O)OC2CC3CCC(C2)N3C)cc1 (stereo unspecified) returned RE007 growth inh -3.9%, 2A StopGo -5.0%, NS1 inh 0.6% and SARS PLpro yeast -1.1%.
`O=C(CSc1nnc(CNC(=O)c2c(F)cccc2Cl)o1)Nc1ccc2c(c1)OCO2` gave Marburg entry inh 23.6%[46.1 µM], Lassa entry inh inconclusive, RE007 growth inh -11.5%, 2A StopGo -2.8% and SARS PLpro yeast -0.4%.
O=C1C=C(c2ccccc2)OC(c2ccccc2)O1 (stereo unspecified) was read as Marburg entry inh 28.5%, Lassa entry inh -14.6%, RE007 growth inh -11.2%, 2A StopGo 40.2%[activator], NS1 inh 4.9% and SARS PLpro yeast 0.6%.
For C/C(=N\NC(=S)Nc1ccc(F)cc1)C1CC1 the results were Marburg entry inh 19.4%, Lassa entry inh 0.0%, Cruzain inh noDet -4.2%, RE007 growth inh 11.2%, Cruzain Triton 3.8%, NS1 inh 1.5% and SARS PLpro yeast 3.3%.
CC(C)c1ccc(N2C(=O)CSC23C(=O)N(C)c2ccccc23)cc1 (stereo unspecified) was read as Lassa entry inh -1.1%[46.1 µM], Cruzain inh noDet -9.1%, Cruzain Triton -4.2% and 2A StopGo -19.6%.
CC1CCC(NC(=O)CCS(=O)(=O)c2ccc3c(c2)oc(=O)n3C)CC1 (stereo unspecified) was read as Marburg entry inh -19.1%[46.1 µM], Lassa entry inh 20.9%[46.1 µM], RE007 growth inh -3.5%, 2A StopGo -3.5%, NS1 inh -3.4% and SARS PLpro yeast -3.7%.
For N#CCCN(Cc1cccnc1)C(=O)Nc1cccc(Cl)c1 the results were Marburg entry inh -6.2%, Lassa entry inh 1.5%, Cruzain inh noDet -9.3%, RE007 growth inh 3.2%, Cruzain Triton 2.2%, 2A StopGo -9.7%, NS1 inh 3.2% and SARS PLpro yeast 4.9%.
Screening O=C(O)CCSc1ncnc2sc(-c3ccccc3)cc12 returned Marburg entry inh inconclusive, Lassa entry inh inconclusive, RE007 growth inh 2.2%, 2A StopGo inconclusive, NS1 inh -5.4% and SARS PLpro yeast 0.7%.
Screening COc1cccc(CN2CCN(c3ccc(F)cc3)C2=O)c1 returned Marburg entry inh 0.2%[46.1 µM], Lassa entry inh -0.3%[46.1 µM], RE007 growth inh 7.7%, 2A StopGo 2.0%, NS1 inh 3.6% and SARS PLpro yeast -0.8%.
`Cc1cc(C(=O)CCC(=O)N(C)CC(=O)Nc2ccccc2Br)c(C)s1` gave Marburg entry inh 2.6%, Lassa entry inh -12.1%[46.1 µM], RE007 growth inh -5.7%, 2A StopGo -16.0% and SARS PLpro yeast 1.1%.
Screening COCCNC(=O)C(c1cccs1)N(C(=O)Cn1nnc2ccccc21)c1ccc2c(c1)OCO2 (stereo unspecified) returned Marburg entry inh -2.0%, Lassa entry inh 7.2%, Cruzain inh noDet -2.4%, RE007 growth inh -9.4%, Cruzain Triton 5.6%, 2A StopGo 3.9%, NS1 inh -58.6% and SARS PLpro yeast 1.6%.
CC(C)(C)NC(=O)CCN1CCOCC1 was read as Marburg entry inh 34.4%, Lassa entry inh -1.0%, Cruzain inh noDet -0.4%, RE007 growth inh 17.5%, Cruzain Triton 5.5%, 2A StopGo -6.1%, NS1 inh 5.4% and SARS PLpro yeast 1.4%.
